Screening results deposited in PubChem by National Center for Advancing Translational Sciences (NCATS).
PINK1 expr mod: changes PINK1 expression. PINK1 immunofluorescence, high-content cytometry, 24 h. Potency, µM (doses to about 76.6 µM), inactives show at the top dose activation (PINK1 increase), actives largely listed as activators. hit rate 0.2% among 410,000. AID 624263; active = well fitted activation curve with a large enough effect; inconclusive = small, poorly fitted or top-dose-only effect; inactive = flat fitted curve, though single readings scatter; cell line not stated here;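 also: % of control where 0% means no effect; nearly all actives have a fitted effect of over 65% in size; a mitochondrial uncoupler was the plate control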
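PINK1 protein, normally rapidly degraded, was detected by immunofluorescence after 24 hour compound treatment of a stable cell line. Titration data (5 concentrations) came from laser-scanning cytometry, with CCCP-treated wells as controls.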
ClpP mod: qHTS Assay for Activators of ClpP. hit rate 1.9% among 340,000. AID 651965, 2013. purified B. subtilis ClpP, FRET peptide cleavage, 20 min. Potency, µM (top dose mostly 57.5 µM), without a hit: at the highest dose activity change, negative = active. ATP-dependent Clp protease proteolytic subunit (Bacillus subtilis (strain 168)), P80244; active = well fitted falling curve with a large enough effect; inconclusive = small, poorly fitted or top-dose-only effect; inactive = no such curve, though single readings can be large or run the other way; also: the source files actives as falling curves though it sought activators and does not explain the sign; nearly all actives have a fitted effect of over 65% in size; many hits overshoot -100%
Target sequence (P80244 whole entry, looked up): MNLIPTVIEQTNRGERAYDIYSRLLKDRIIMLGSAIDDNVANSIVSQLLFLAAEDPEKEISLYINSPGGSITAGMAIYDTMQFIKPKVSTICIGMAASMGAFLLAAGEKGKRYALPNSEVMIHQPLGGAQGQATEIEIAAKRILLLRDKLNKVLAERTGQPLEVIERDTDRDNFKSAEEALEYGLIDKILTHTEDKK
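FRET quenching reversal measured ClpP activation: 10 microg/mL B. subtilis ClpP at pH 8 with the FRET-FV decapeptide, read at 430 nm after 320 nm excitation. The 20-min minus 0-min signal was scaled between DMSO/no-enzyme wells and ADEP (5.8 microM final).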
Starred values were filed as active, the others as inactive; ? = inconclusive. Potency is read from the fitted curve at half-maximal effect. Not all compounds are listed; rates above refer to the full screens.

Structure | PINK1 expr mod | ClpP mod
CCc1ccc(CNC(=O)c2cc(=O)[nH]c3ccc(S(=O)(=O)N4CCCCC4)cc23)cc1 | -0.4% | -0.1%
CCc1cccc(CC)c1NC(=O)Cn1nnc2sc(-c3ccccc3)cc2c1=O | 1.8% | -4.5%
Cc1ccc2c(CNCc3ccc(C)o3)c(C(=O)O)n(Cc3ccccc3C)c2c1 | 2.0% | -13%
O=C(Cc1ccc(Cl)cc1)Nc1nnc2n1CCS2 | -3.6% | -0.4%
CCOc1ccccc1CNC(=O)CCCn1c(=O)c2cccn2c2ccc(F)cc21 | -0.6% | ?
CCOc1ccc(CCNC(=O)CCc2c(C)nc3c(-c4ccccc4)c(C)nn3c2C)cc1OCC | 1.5% | 0.8%
COc1cc(OC)cc(C2=Cc3ccc(OC)cc3C(CC(C)=O)N2c2ccc(C#CC3(N)CCCCC3)cc2)c1 (stereo not given) | -1.1% | 5.3%
CC(C)(C)c1ccc(C(=O)NC2(C(F)(F)F)NC(=O)N(CCc3ccccc3)C2=O)cc1 (stereo not given) | 28% | -1.2%
O=S1(=O)CC(N2CCCC2)CN1Cc1cn(Cc2ccc(F)cc2)nn1 (stereo not given) | -0.4% | -1.1%
Cc1ccc(NC(=O)CCc2nc3cccnc3n2-c2ccccc2)cc1Cl | 28% | 0.9%
COc1ccc(C(=O)Nc2nc3n(n2)C(c2ccccc2)C=C(c2ccccc2)N3)cc1 (stereo not given) | -1.3% | -15%
COc1ccc(-c2nc(Cn3c(=O)cc(-c4ccccc4)c4c(C)nn(C)c43)c(C)o2)cc1OC | -1.0% | -0.5%
Cc1nc2cccnc2n1-c1cccc(C(=O)N2CCN(c3ccc(Cl)cc3)CC2)c1 | 0.3% | -0.3%
CCCOc1ccc(NC(=O)CC2C(=O)N(c3cccc(C)c3)C(=O)N2CCc2ccncc2)cc1 (stereo not given) | -0.8% | -0.2%
COc1ccc(CNC(=O)c2ccc(NC(=O)N3CCSc4ncccc43)cc2)cc1OC | -0.1% | ?
COc1ccc(NC(=O)c2oc3ccccc3c2NC(=O)C23CC4CC(CC(C4)C2)C3)cc1 | 3.2% | -18%
CC1(C)CC(=O)c2cc(-c3nc(-c4ccc(Cl)cc4)cs3)c(=O)[nH]c2C1 | 4.0% | -10%
COc1cccc(-c2nc(CS(=O)(=O)CC(=O)NCCc3ccc(Cl)cc3)c(C)o2)c1 | 5.9% | -26%
Cn1c(=O)c2c(nc(NCc3ccccc3)n2Cc2ccccc2)n(C)c1=O | 0.9% | 0.4%
CC(=O)c1c(C)oc2c(Cl)cc(NS(=O)(=O)c3cc(C)c(C)cc3C)cc12 | 5.6% | 2.0%
CSc1ccc(CCNC(=O)C2CCN(c3nc4ccccc4nc3C(F)(F)F)CC2)cc1 | 0.7% | -3.0%
COCCN1C(=O)c2oc3ccc(C)cc3c(=O)c2C12C(=O)N(C)c1ccccc12 (stereo not given) | 0.2% | -4.0%
O=C(Nc1ccc(Br)cc1)c1ccc(Br)c(S(=O)(=O)NCc2ccccc2)c1 | ? | -18%
COc1ccc(CNc2cccnc2Cl)cc1 | -1.1% | -0.1%
COc1cc(NC(=O)CSc2nc3ccccc3nc2Cc2ccc(Cl)cc2)cc(OC)c1 | 1.1% | 1.0%

(cont.)
Structure | PINK1 expr mod | ClpP mod
CCOc1ccc(/C=C/c2ccc3ccccc3[n+]2C)cc1OCC | 3.1% | -2.8%
CCc1ccc(NC(=O)c2ccc(-c3ccccc3)s2)cc1 | 2.2% | -30%
CSc1cccc(NC(=O)c2cc3c(COC(C)=O)cnc(C)c3oc2=O)c1 | 1.2% | 0.0%
COc1ccc(NC(=O)CSc2nc3ccccc3n2Cc2cccc(OC)c2)cc1 | 3.2% | -1.5%
Cc1cc(NC(=O)COc2ccccc2)cc(-c2nc3ccccc3o2)c1O | -1.5% | -7.2%
CCOC(=O)c1ccc(CSc2nnc3cc(C)c4ccccc4n23)cc1 | 0.0% | -5.3%
CCOC(=O)c1c(S(=O)(=O)N2CCCC(C(=O)NCc3ccc(F)cc3)C2)c(C)n(CC)c1C (stereo not given) | 2.2% | 1.2%
CCC(=O)N1CCc2cc(Br)cc(S(=O)(=O)N3CCN(c4cccc(Cl)c4)CC3)c21 | 1.1% | -1.2%
CCc1ccc(CNC(=O)c2cccc(-n3cnc4cccnc43)c2C)cc1 | 0.1% | 1.4%
CCOc1ccc(S(=O)(=O)NCCc2csc3nc(-c4ccc(OC)c(OC)c4)nn23)cc1 | -1.6% | -1.4%
Cc1c(CNC(C)CCc2ccccc2)c(C(=O)O)c(C)n1Cc1ccc(F)cc1 (stereo not given) | 1.0% | -4.2%
Cc1ccc(NC(=O)C2CCN(c3nc4ccccc4[nH]3)CC2)c(C)c1 | 0.3% | -0.3%
COC(=O)[C@]12CCCCC=C1N(Cc1ccco1)C(=O)[C@H](CC(=O)NCCC(C)C)C2 | 0.7% | -4.3%
CN(C)S(=O)(=O)c1ccc2c(c1)N(CC(=O)N1CCN(c3ccc(F)cc3)CC1)CCS2 | -1.2% | -13%
O=C(CC1C(=O)OCCN1Cc1ccccc1)Nc1ccc(F)cc1 (stereo not given) | 2.0% | 0.3%
Cc1ccc(C)c(-n2nnc(C(=O)Nc3ccc(Br)cc3)c2C)c1 | -1.0% | -10%
COc1cccc(Cn2c(CNS(=O)(=O)c3ccc(Cl)s3)nc3cccnc32)c1 | -1.8% | -3.0%
Cc1ccc(-n2c(SCC(=O)Nc3cccc(F)c3)nc3c(oc4ccccc43)c2=O)cc1C | 2.0% | -19%
CC(=O)c1c(C)oc2ccc(NS(=O)(=O)c3ccc(C(C)C)cc3)cc12 | 4.5% | 3.1%
Cc1cccc(NC(=O)C(=O)NCC(c2ccc3c(c2)OCO3)N2CCOCC2)c1C (stereo not given) | -1.0% | -1.3%
CCCC(=O)N1c2ccccc2-c2nnc(SC)nc2OC1c1sccc1C (stereo not given) | 4.4% | -6.2%
CCOC(=O)c1cnc2c(Cl)cc(Cl)cc2c1Nc1ccccc1OC | -2.1% | 0.2%
Cc1ccc(CSc2cn(CCNC(=O)c3cccs3)c3ccccc23)cc1 | 11% | -4.1%
COc1ccc(-n2ccn(Cc3ccccc3C)c(=O)c2=O)cc1 | 0.2% | 0.9%
Cc1ccc(C(=O)Nc2ccc(S(=O)(=O)N3CCC(c4nc5ccccc5s4)CC3)cc2)cc1 | 0.7% | -3.5%

The listing continues:
Structure | PINK1 expr mod | ClpP mod
O=C(OCCO)c1c(C2=CCCCC2)oc2c1C(OCCO)CCC2 (stereo not given) | 0.5% | -0.7%
Cc1ccc(C)c(N2CCN(C(=O)Cn3nc(C)c4sc5ccccc5c4c3=O)CC2)c1 | 3.9% | -0.9%
COc1ccccc1CNC(=O)c1cn(C)c2ccc(S(=O)(=O)N3CCC(C)CC3)cc2c1=O | 4.7% | -0.2%
Cc1cccc(N2CCN(c3c(CN4CCCC4)c(=O)oc4ccccc34)CC2)c1C | 0.4% | -5.5%
COC[C@@H]1CCCN1c1ccc2c(c1)O[C@H](COCc1ccccc1)CN([C@@H](C)c1ccccc1)S2(=O)=O | 2.4% | ?
CCC(C)NC(=O)c1ccc2nc(-c3ccco3)c(-c3ccco3)nc2c1 (stereo not given) | 2.6% | -8.3%
Cc1ccc2occ(CC(=O)Nc3ccc(S(=O)(=O)N4CCCC(C)C4)cc3)c2c1 (stereo not given) | 1.9% | -2.4%
Cn1c(=O)c2c(nc(CN3CCN(c4ccccc4F)CC3)n2Cc2ccccc2F)n(C)c1=O | -0.5% | -0.6%
Cc1cc2nc(C(C)(C)C)c(CC3CCCCC3)n2c(C)c1Br | ? | 0.8%
COC[C@H]1CCCN1c1ccc2c(c1)O[C@H](COCc1ccccc1)CN([C@@H](C)c1ccccc1)S2(=O)=O | -0.7% | -28%
N#Cc1ccccc1S(=O)(=O)N1CCCC(c2nc3c(nnn3Cc3cccc(Cl)c3)c(=O)[nH]2)C1 (stereo not given) | -0.5% | -1.0%
CCCS(=O)(=O)c1ncc(Cl)c(C(=O)Nc2c(C(=O)c3ccccc3)oc3ccccc23)n1 | 0.7% | -1.0%
COCCCNC(=O)C1CCCN(c2nn3cc(-c4ccc(C)cc4)nc3s2)C1 (stereo not given) | 2.5% | 1.8%
COc1ccc(OC)c(NC(=O)Cn2cc(C(=O)c3cccs3)c3ccccc32)c1 | 1.6% | -9.0%
COC(=O)c1ccccc1NC(=O)Cn1c(=O)n(CCCC(=O)NCc2ccccc2Cl)c(=O)c2ccccc21 | 0.5% | 1.6%
Clc1ccc(-c2nnn3c2nc(NC2CCCCC2)c2ccccc23)cc1 | 1.0% | -21%
Cn1c(=O)c(=O)n(C)c2cc(C(=O)NCc3ccccc3Cl)ccc21 | 0.2% | -19%
COc1ccc(NC(=O)CCCN2C(=O)COc3ccc(C)cc32)cc1OC | 0.9% | -9.4%
CC(=O)c1ccc(NC(=O)c2nn(C)c3c2CS(=O)(=O)c2ccccc2-3)cc1 | 0.3% | 0.4%
COc1ccc(Nc2oc(/C=C/c3cccc(OC)c3)nc2C#N)cc1 | ? | ?
O=C(NCc1cccc(Br)c1)c1cccn1-c1nnc(N2CCCCC2)s1 | 2.0% | -29%
COc1cc(NC(=O)CC(c2cccs2)N2Cc3ccccc3C2=O)cc(OC)c1OC (stereo not given) | -4.6% | 0.2%
CCc1ccc(Nc2nn3c(=O)c4cc5c(cc4nc3s2)OCO5)cc1 | 2.5% | -12%
CC(=O)N1CCc2c(sc3c2c(=O)n(-c2cccc(Cl)c2)c(=O)n3Cc2ccc(F)cc2Cl)C1 | 1.8% | -1.9%
Cc1ccc(NC(=O)Cn2c(=O)n(Cc3nc(C)no3)c(=O)c3cc4c(cc32)OCO4)cc1 | -1.0% | 14%

More compounds
Structure | PINK1 expr mod | ClpP mod
Cc1ccc(NC(=O)c2nn(C)c3c2CS(=O)(=O)c2ccccc2-3)c(Cl)c1 | 1.7% | -2.7%
CC1=C(C(=O)Nc2ccc(F)cc2F)C2(CCCCCC2)OC1=O | 2.7% | -1.0%
COc1ccc(Nc2cc(C)nc3c(C)c(C)ccc23)cc1 | 2.6% | 0.3%
COc1ccc(OC)c(NC(=O)c2ccc(-c3nc(COc4ccccc4)c(C)o3)cc2)c1 | 0.5% | -3.6%
COc1cc(C2(C)SCCCS2)cc(OC)c1OC | 1.2% | 1.0%
COc1ccc(OC)c(CCNC(=O)c2nn(C)c3c2CSc2ccccc2-3)c1 | 0.5% | -2.3%
CCC(C)NC(=O)c1cccc(NC(=O)c2nsc3ccccc23)c1 (stereo not given) | -0.7% | 0.1%
Cc1cccc(-c2nc(-c3ccc4c(c3)[nH]c(=O)n4C)no2)c1 | -2.2% | 10%
CCC(=O)NCC(c1ccc2c(c1)OCO2)N1CCN(c2ccccc2)CC1 (stereo not given) | -1.6% | -0.9%
CC(C)Oc1ccc(C(=O)N2CC(=O)Nc3ccc(F)cc3C2c2ccc(F)cc2)cc1 (stereo not given) | -1.9% | 1.3%
COc1cc(OC)cc(C2=Cc3ccc(OC)cc3C(CC(C)=O)N2c2ccc(-c3cncnc3)cc2)c1 (stereo not given) | 1.9% | 4.5%
Cc1ccc2c(c1)C(=O)C(=O)N2Cc1ccc(OCCC(C)C)cc1 | 1.6% | 4.6%
COc1cc(C2c3c(-c4cc(C)ccc4O)n[nH]c3C(=O)N2CCCO)ccc1OCCC(C)C (stereo not given) | -1.5% | 0.3%
Cc1cc(=O)c2cc(C(=O)Nc3ccc(C)c(C)c3)ccc2[nH]1 | -0.5% | -2.9%
O=C(Nc1ccc(F)cc1F)C(Cc1ccccc1)N1Cc2ccccc2C1=O (stereo not given) | 7.3% | 0.9%
Cc1ccccc1CNC(=O)C(=O)NCC(c1cccs1)S(=O)(=O)c1ccc(Cl)cc1 (stereo not given) | 0.2% | -10.0%
N#Cc1ccc(CSc2nnc(-c3ccc(Br)cc3)o2)cc1 | 4.1% | 1.3%
Cc1ccc(C)c(N2CCN(c3ncnc4c3nc3n4CCCC3)CC2)c1 | -15% | -2.3%
Cc1ccc(C(=O)Nc2ccccc2C(=O)OCc2cc(=O)n3nc(C4CC4)sc3n2)cc1 | 5.2% | -22%
CCOC(=O)CSc1nc2cc3c(cc2c(=O)n1CCCC(=O)NCCc1ccc(OC)c(OC)c1)OCO3 | 0.1% | 3.0%
COc1ccccc1CNC(=O)CSc1nc(=O)[nH]c2c1CCCC2 | 0.4% | -0.2%

Arranged by formula weight (lowest first): some entries from above
Structure | PINK1 expr mod | ClpP mod
COc1cc(C2(C)SCCCS2)cc(OC)c1OC | 1.2% | 1.0%
Cc1cc(=O)c2cc(C(=O)Nc3ccc(C)c(C)c3)ccc2[nH]1 | -0.5% | -2.9%
COc1ccc(OC)c(NC(=O)c2ccc(-c3nc(COc4ccccc4)c(C)o3)cc2)c1 | 0.5% | -3.6%
COc1cc(C2c3c(-c4cc(C)ccc4O)n[nH]c3C(=O)N2CCCO)ccc1OCCC(C)C (stereo not given) | -1.5% | 0.3%
CCOC(=O)CSc1nc2cc3c(cc2c(=O)n1CCCC(=O)NCCc1ccc(OC)c(OC)c1)OCO3 | 0.1% | 3.0%
